From PubChem BioAssay
BJeLR lethal – MLPCN primary cell-based screen for lethality selective to Ras in HRASV12 cells; BJeLR (HRASV12) viability, CellTiter-Glo ATP luminescence, 48 h; reference of the scale not given here; inhibition, % (no concentration beside the values); AID 1554, 2009; hit rate 0.17% among 300,000;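 active = replicate mean above 50%; inconclusive = above 50% but judged a plate artefact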;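 also: 50 nL library stock added to about 25 µL; numbers are from one replicate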
Mtb hypoxia rep – PubChem AID 1159583; M. tuberculosis hypoxia-regulated fluorescent reporter, fluorescence; fluorescence inhibition, % (no concentration beside the values); hit rate 0.1% among 300,000;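 active = 35 to 45% if threefold the growth effect, above 45% if 1.5-fold the growth effect; inactive = the rest, general growth blockers included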;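 also: wells of about 50 µL received 100 nL stock; 0% = vehicle wells and 100% = reference inhibitor wells; whole bacteria with a GFP reporter of the hypoxia response; strong numbers were not always called active; many hits fall short of the cut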
PrP 5UTR inh – inhibition of PrP 5' UTR reporter expression. cell-based PrP 5' UTR mRNA reporter, plate reader. inhibition, % (no concentration beside the values). hit rate 0.35% among 340,000;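 active = every replicate at 50% or more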;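 also: 0 = median of the neutral control wells; tested in H4 reporter cells; numbers are from one replicate; inactives centre near -14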
Sa RN4220 lethal – growth inhibition of S. aureus RN4220, primary screen, OD600; 16 h; inhibition, % (test concentration not listed); hit rate 0.33% among 330,000; AID 1259311, 2017;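 active = z-score of -3 or lower and OD600 up to 0.18 on both plates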;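 also: plate controls were untreated cells for no effect and reference antibiotic for full effect; stock transfer was 100 nL into about 80 µL; one replicate is shown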
Sa ugtP lethal – growth inhibition of ugtP-null S. aureus, primary screen, RN4220 ugtP deletion, OD600; 16 h; some inactives read as strong as hits; growth inhibition, % (test concentration not listed); hit rate 0.54% among 330,000; AID 1259309, 2017;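 active = z-score under -3 and OD600 up to 0.15 on both plates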;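 also: plate controls were untreated wells for no effect and antibiotic for full effect; wells of about 80 µL received 100 nL stock; the first replicate is given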
Autofluor counter – flagged as autofluorescent in microsphere protease counterscreen; compound autofluorescence counterscreen, microsphere flow cytometry; stronger effect = higher value; fluorescence intensity (concentration not given with the values); hit rate 3.1% among 360,000;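 active = at least 3 SD above the mean of all compounds, about 16000 in these data; inconclusive = too few beads counted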;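 also: 100 nL of 1 mM stock went into each well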
Mtb hypoxia rep growth – second read-out of Mtb hypoxia rep, no call of its own (marks repeat the call); growth inhibition, %; measured here: M. tuberculosis growth (absorbance);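 0% = vehicle and 100% = reference antibiotic; read after six days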
Active calls of the source: *; u = inconclusive; x = not tested or not shown.

1: COC(=O)C1C(c2ccccc2)C(C(=O)N2CCOCC2)C1c1ccccc1 (stereo unspecified)
2: O=C(CSc1ccc2c(c1)OCCO2)Nc1ncccc1O
3: O=C(O)C(=Cc1cccc([N+](=O)[O-])c1)c1ccc(Cl)cc1
4: O=C(O)c1cc(-c2cccs2)nn1-c1ccc(F)cc1
5: O=C(NNS(=O)(=O)c1ccc2ccccc2c1)c1cc(-c2ccccn2)nc2ccccc12
6: COc1ccc(OCCOc2ccc(C)nc2[N+](=O)[O-])cc1

compound no.	1	2	3	4	5	6
BJeLR lethal	14	-2	x	1	-3	-3
Mtb hypoxia rep	0	x	-1	5	7	9
Mtb hypoxia rep growth	10	x	0	-5	14	6
PrP 5UTR inh	-35	-24	-15	-11	-12	-28
Sa RN4220 lethal	1.2	x	2.5	-1.3	8.4	1.4
Sa ugtP lethal	-4	x	10	7	0	5
Autofluor counter	22025*	u	3870	3775	2372	10765

7: COc1ccc(NC(=O)CSc2nc(N)c(NC(=O)c3ccccc3F)c(=O)[nH]2)cc1
8: Cc1c(C=O)c2ccccn2c1C(=O)c1ccc(F)cc1
9: Cc1ccc(CN2C(=O)C(C)(C)Oc3ccc(C(=O)N4CCCCC4)cc32)cc1
10: O=C(NN1C(=O)/C(=C/c2ccc(O)cc2)SC1=S)c1cccc(O)c1
11: Cc1ccc(NC(=S)Nc2ccc(S(=O)(=O)Nc3ncccn3)cc2)c(C)c1
12: C/C(=N/OCc1ccc(Br)cc1)c1ccccn1

compound no.	7	8	9	10	11	12
BJeLR lethal	0	3	-2	0	13	-7
Mtb hypoxia rep	1	3	x	-1	6	x
Mtb hypoxia rep growth	-4	11	x	-2	0	x
PrP 5UTR inh	2	-11	-4	-10	-18	-45
Sa RN4220 lethal	2.9	2.1	3.3	11	8.6	x
Sa ugtP lethal	2	-4	-6	-3	1	x
Autofluor counter	5003	3783	3447	x	4077	2098

13: CC(=O)c1c(C)[nH]c(C(=O)CN2C(=O)NC(C)(c3ccc(C)cc3)C2=O)c1C (stereo unspecified)
14: Cc1ccc(CN(C(=O)c2cc(=O)c3cc(C)cc(C)c3o2)C2CCS(=O)(=O)C2)cc1 (stereo unspecified)
15: COc1ccc(C2(CNC(=O)C(=O)Nc3ccc(C)cc3)CCOCC2)cc1
16: Cc1ccc(Cl)cc1NS(=O)(=O)c1cc2[nH]c(=O)c(=O)[nH]c2cc1C
17: CCCCNC(=O)O[C@H]1C[C@@H]2CCN3C(=O)CCC(C)(C)[C@H](C1)[C@H]23
18: CCOc1ccc(C=NNC(=O)c2cc3ccccc3cc2OC)cc1

compound no.	13	14	15	16	17	18
BJeLR lethal	6	-5	4	1	-5	x
Mtb hypoxia rep	-6	1	2	6	x	11
Mtb hypoxia rep growth	8	5	11	-1	x	11
PrP 5UTR inh	-11	x	-13	7	-2	x
Sa RN4220 lethal	-9.0	4.8	2.5	4.0	x	-1.5
Sa ugtP lethal	-10	6	0	9	x	8
Autofluor counter	3392	5914	4823	4732	2958	x

19: COc1ccc(Cc2nnc(NC(=O)c3cccc(F)c3)s2)cc1OC
20: O=C1C2=C(NC(=S)NC2c2ccc(Cl)cc2)NC(c2ccc(Cl)cc2)N1c1ccc(Cl)cc1 (stereo unspecified)
21: CCN(CC)S(=O)(=O)c1cc(C(=O)OC)ccc1Cl
22: CCN(CC)c1ccc2cc(NC(=O)CCC(=O)O)c(=O)oc2c1
23: Cc1ccc2occ(C=NNC(=O)c3ccccc3Br)c(=O)c2c1
24: Cc1noc(C)c1S(=O)(=O)N1CCC(C(=O)N2CCC(C)CC2)CC1

compound no.	19	20	21	22	23	24
BJeLR lethal	2	-5	-2	0	x	-6
Mtb hypoxia rep	-12	0	7	8	2	x
Mtb hypoxia rep growth	5	4	5	6	-4	x
PrP 5UTR inh	-3	-4	-14	50	x	-14
Sa RN4220 lethal	2.3	100*	3.8	2.7	3.3	4.8
Sa ugtP lethal	1	93*	-1	-2	7	3
Autofluor counter	4045	3084	20925*	11219	x	3358

25: O=C(NCCCCc1ccccc1)Nc1ccc(F)cc1F
26: CCCn1c(=O)c(-c2ccccc2)c(O)c2ccccc21
27: CCCCCSc1nnc(C)c(=O)[nH]1
28: CC(=O)c1ccc(N2CCN(Cc3nc(Cc4ccccc4)no3)CC2)cc1
29: Cc1ccc(NC(=O)c2ccc(C(C)(C)C)cc2)cc1[N+](=O)[O-]
30: COc1cccc(NC(=O)CCC(=O)NCc2ccco2)c1

compound no.	25	26	27	28	29	30
BJeLR lethal	-3	-13	-11	2	-6	-8
Mtb hypoxia rep	8	8	5	4	-3	9
Mtb hypoxia rep growth	5	4	12	8	-3	9
PrP 5UTR inh	-13	-7	-21	-17	-64	-17
Sa RN4220 lethal	4.0	4.4	3.4	4.3	-3.1	4.7
Sa ugtP lethal	15	10	7	8	2	4
Autofluor counter	u	4235	9936	2835	2132	4331

31: CCCn1c(=O)c(C(=O)NCCc2ccc(OC)cc2)c(O)c2ccccc21
32: Oc1c(/C=N/Nc2cccc3cccnc23)ccc2ccccc12
33: FC(F)(F)c1ccc(Sc2nnc(-c3cccs3)n2CC2CCCO2)nc1 (stereo unspecified)
34: Cc1ccnc(NS(=O)(=O)c2ccc(N3C(=O)C4CCCCC4C3=O)cc2)n1 (stereo unspecified)
35: COc1ccccc1NC(NC(=O)c1ccco1)C(=O)c1ccccc1 (stereo unspecified)
36: COc1ccccc1C(C)NC(=O)c1cc(=O)[nH]c2ccccc12 (stereo unspecified)

compound no.	31	32	33	34	35	36
BJeLR lethal	10	10	-8	2	-4	-2
Mtb hypoxia rep	18	x	17	13	-3	-7
Mtb hypoxia rep growth	3	x	8	9	5	-5
PrP 5UTR inh	-23	-148	-25	-35	-9	-1
Sa RN4220 lethal	2.7	x	0.5	0.9	0.0	0.2
Sa ugtP lethal	13	x	4	8	-4	5
Autofluor counter	3767	2291	3590	3728	9903	3935

37: Cc1nn(C)cc1CN1CCCC(C(=O)c2ccc(-c3ccccc3)c(F)c2)C1 (stereo unspecified)
38: COc1ccc(OC)c(-c2csc(NC(=O)Cc3ccccc3OC)n2)c1
39: N#C/C(=C\c1cn(CCOc2ccccc2)c2ccccc12)C(=O)NCc1cccs1
40: O=C1CC(NS(=O)(=O)c2cc(F)ccc2F)CN1c1ccc2c(c1)OCCO2 (stereo unspecified)
41: CN(C)CCN(C(=O)/C=C/c1cccs1)c1nc2ccc(F)cc2s1
42: CN(CC(=O)Nc1ccc(Cl)c(C(F)(F)F)c1)C(=O)CC1Sc2ccccc2NC1=O (stereo unspecified)

compound no.	37	38	39	40	41	42
BJeLR lethal	1	-4	-8	0	-4	5
Mtb hypoxia rep	-7	2	12	5	18	9
Mtb hypoxia rep growth	1	7	2	0	9	-4
PrP 5UTR inh	-26	-4	-20	-12	-8	-14
Sa RN4220 lethal	14	-4.5	0.0	5.7	-7.6	-17
Sa ugtP lethal	76	-7	-1	12	-5	13
Autofluor counter	2923	4425	2777	4225	2478	5409

43: CCCCCCCN1CCC(=O)N([C@H](CO)Cc2ccccc2)CC1
44: COc1ccc(CCNC(=O)c2csc3c2CCCC3)cc1OC
45: CCOc1ccc(NS(=O)(=O)c2cc3c4c(c2)C(C)C(=O)N4CCC3)cc1 (stereo unspecified)
46: Cc1ccc(OCCC(=O)OCC(=O)N2c3ccccc3NC(=O)C2(C)C)cc1
47: Cc1ccccc1N1C(=O)CC(N2CCC(C(N)=O)CC2)C1=O (stereo unspecified)
48: COc1ccc(CNc2nc3c(c(=O)n(Cc4ccc(Br)cc4)c(=O)n3C)n2C)cc1

compound no.	43	44	45	46	47	48
BJeLR lethal	3	6	3	4	2	-1
Mtb hypoxia rep	x	-1	11	3	-6	6
Mtb hypoxia rep growth	x	7	7	0	-8	2
PrP 5UTR inh	-5	-18	-10	-35	2	-27
Sa RN4220 lethal	x	5.9	4.3	1.3	4.4	-11
Sa ugtP lethal	x	17	5	4	3	-3
Autofluor counter	4543	4877	4194	5557	5879	20995*

Entries of single compounds, quoted from the list.
O=C1CC(NS(=O)(=O)c2cc(F)ccc2F)CN1c1ccc2c(c1)OCCO2 (stereo unspecified) as listed: BJeLR lethal: 0; Mtb hypoxia rep: 5; Mtb hypoxia rep growth: 0; PrP 5UTR inh: -12; Sa RN4220 lethal: 5.7; Sa ugtP lethal: 12; Autofluor counter: 4225
CCCCCSc1nnc(C)c(=O)[nH]1 as listed: BJeLR lethal: -11; Mtb hypoxia rep: 5; Mtb hypoxia rep growth: 12; PrP 5UTR inh: -21; Sa RN4220 lethal: 3.4; Sa ugtP lethal: 7; Autofluor counter: 9936

Further entries follow:
49: COC(=O)c1c(NC(=O)C2CC=CCC2C(=O)O)sc2c1CCCCC2 (stereo unspecified)
50: O=C1Nc2ccc(S(=O)(=O)N3CCCCCC3)c3cccc1c23
51: COc1ccccc1NC(=O)/C(=C/c1cccc([N+](=O)[O-])c1)c1ccccc1
52: O=C(NCc1ccc(Cl)cc1)c1ccc2nc[nH]c2c1
53: CCN1CCN(CCOc2cccc(Cl)c2Cl)CC1
54: O=C(OCN1C(=O)c2ccccc2C1=O)c1ccc(Cl)nc1

compound no.	49	50	51	52	53	54
BJeLR lethal	1	1	12	-1	1	0
Mtb hypoxia rep	-1	x	11	5	11	9
Mtb hypoxia rep growth	0	x	3	4	10	-5
PrP 5UTR inh	-20	7	-7	-26	-5	-15
Sa RN4220 lethal	9.1	5.6	8.0	2.4	2.2	1.8
Sa ugtP lethal	-13	1	13	11	11	2
Autofluor counter	5156	4832	2023	2151	4366	3066

55: COc1ccc(-c2cc(C3CCN(Cc4ccc([N+](=O)[O-])cc4)CC3)[nH]n2)cc1
56: O=[N+]([O-])c1ccc(Sc2ccc(Cl)c(Cl)c2)nc1
57: CSc1nc2cc(Oc3cccc(Cl)c3Cl)c(Cl)cc2[nH]1
58: COC(=O)/C=C1\SC(=Nc2ccc(OC)cc2)NC1=O
59: O=C(CCc1nnc(CCCCc2ccccc2)o1)N1CCC(N2CCCC2)CC1
60: COc1ccc(S(=O)(=O)NCCc2nnc3ccc(SCc4cccnc4)nn23)cc1

compound no.	55	56	57	58	59	60
BJeLR lethal	-2	-3	-2	-13	-6	4
Mtb hypoxia rep	-12	8	-4	1	0	9
Mtb hypoxia rep growth	5	16	4	3	-2	5
PrP 5UTR inh	-47	-21	-4	7	-24	-23
Sa RN4220 lethal	3.7	11	100*	3.2	3.1	6.3
Sa ugtP lethal	-2	-5	97*	-4	5	16
Autofluor counter	3275	u	4400	4468	4348	4925

61: CCn1nc(C)c(CNC(=O)c2cc(COc3ccc(C)nc3)on2)c1C
62: O=C(O)c1cccc(NCc2cccnc2)c1
63: Cc1nn(C)cc1C=NCCOCc1ccccc1
64: O=C(CCCO)c1ccc2c(c1)OCCO2
65: CCN1CCN(c2nc3c(c(=O)[nH]c(=O)n3C)n2CCCSc2ncccn2)CC1
66: Cc1ccc(C=NNC(=O)Nc2ccccc2)o1

compound no.	61	62	63	64	65	66
BJeLR lethal	9	13	-1	0	18	x
Mtb hypoxia rep	4	14	7	-8	15	15
Mtb hypoxia rep growth	0	10	3	-7	8	5
PrP 5UTR inh	-17	-11	-8	-36	-12	x
Sa RN4220 lethal	3.1	-1.7	3.1	3.2	8.1	4.4
Sa ugtP lethal	1	4	-1	4	4	-2
Autofluor counter	6551	3293	4693	9490	2506	x

67: O=C(CSc1nc2ccccc2c(=O)n1CC1CCCO1)NCc1ccccc1 (stereo unspecified)
68: CCOc1ccc(OCC(=O)OCC(=O)N2CCN(C(=O)c3ccco3)CC2)cc1
69: CCOP(=O)(OCC)/C(C#N)=C/c1c[nH]c2ccccc12
70: O=C(Nc1ccc(OC(=O)c2cccs2)cc1)c1ccco1
71: CC(C)CNC(=O)c1c(F)c(F)c(F)c(F)c1F
72: COc1ccc([N+](=O)[O-])cc1NC(=O)C(C)OC(=O)Cn1[nH]c(=O)c2ccccc2c1=O (stereo unspecified)
73: COCC(C)n1c(C)cc(C(=O)Cn2nc(C(=O)O)c3ccccc3c2=O)c1C (stereo unspecified)
74: O=C(CCn1ccc2cc(S(=O)(=O)N3CCCC3)ccc21)NCCc1ccccc1

compound no.	67	68	69	70	71	72	73	74
BJeLR lethal	2	11	0	13	3	3	12	4
Mtb hypoxia rep	18	-8	7	-5	10	5	9	-5
Mtb hypoxia rep growth	6	-6	0	10	8	10	3	1
PrP 5UTR inh	-17	-16	-23	-22	-6	-24	-27	-23
Sa RN4220 lethal	2.8	-1.7	2.2	6.4	2.9	1.1	3.7	2.2
Sa ugtP lethal	3	-2	-3	-1	10	3	13	3
Autofluor counter	2837	u	3812	3825	4720	5806	4652	7986
